# PrP UTR inh: inhibition of PrP 5' UTR reporter expression. cell-based PrP 5' UTR mRNA reporter, plate reader. inhibition, % (test concentration not listed). hit rate 0.35% among 340,000. AID 488862, 2010;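 active means every replicate at 50% or more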;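 further: 0 = median of the neutral control wells; tested in H4 reporter cells; numbers are from one replicate; inactives centre near -14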
# Sa ugtP lethal: growth inhibition of ugtP-null S. aureus, primary screen, RN4220 ugtP deletion, OD600 | 16 h; some inactives read as strong as hits | growth inhibition, % (no concentration beside the values) | hit rate 0.54% among 330,000 | AID 1259309, 2017;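 active means z-score under -3 and OD600 up to 0.15 on both plates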;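 further: plate controls were untreated wells for no effect and antibiotic for full effect; wells of about 80 µL received 100 nL stock; the first replicate is given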
# Sa RN4220 lethal: growth inhibition of S. aureus RN4220, primary screen, OD600; hit rate 0.33% among 330,000; inhibition, % (concentration not given with the values); 16 h; AID 1259311, 2017;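 active means z-score of -3 or lower and OD600 up to 0.18 on both plates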;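 further: plate controls were untreated cells for no effect and reference antibiotic for full effect; stock transfer was 100 nL into about 80 µL; one replicate is shown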
# BJeLR viability: MLPCN primary cell-based screen for lethality selective to Ras in HRASV12 cells; BJeLR (HRASV12) viability, CellTiter-Glo ATP luminescence, 48 h; reference of the scale not given here; inhibition, % (test concentration not listed); hit rate 0.17% among 300,000; AID 1554, 2009;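 active means replicate mean above 50%; inconclusive means above 50% but judged a plate artefact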;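 further: 50 nL library stock added to about 25 µL; numbers are from one replicate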
# Autofluor counter: compound fluorescence in toxin protease inhibitor counterscreen | AID 624483 | hit rate 3.1% among 360,000 | fluorescence intensity (test concentration not listed) | compound autofluorescence counterscreen, microsphere flow cytometry; hits give high values;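 active means at least 3 SD above the mean of all compounds, about 16000 in these data; inconclusive means too few beads counted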;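 further: 100 nL of 1 mM stock went into each well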
# Mtb hypoxia inh: PubChem AID 1159583 | M. tuberculosis hypoxia-regulated fluorescent reporter, fluorescence | fluorescence inhibition, % (no concentration beside the values) | hit rate 0.1% among 300,000;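 active means 35 to 45% if threefold the growth effect, above 45% if 1.5-fold the growth effect; inactive means the rest, general growth blockers included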;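 further: wells of about 50 µL received 100 nL stock; 0% = vehicle wells and 100% = reference inhibitor wells; whole bacteria with a GFP reporter of the hypoxia response; strong numbers were not always called active; many hits fall short of the cut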
# Mtb hypoxia inh growth: recorded beside Mtb hypoxia inh, whose call it bears; growth inhibition, %; measured here: M. tuberculosis growth (absorbance);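 0% = vehicle and 100% = reference antibiotic; read after six days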
# The depositor's hits bear a star; u = inconclusive; x = no result given.
# Results follow in this order: Sa ugtP lethal | BJeLR viability | Autofluor counter | Mtb hypoxia inh | Mtb hypoxia inh growth | PrP UTR inh | Sa RN4220 lethal
CC(C)(C)c1ccc(OCCC(=O)OCC(=O)NC2CCCCC2)cc1
  -1 | -6 | u | 7 | -2 | -3 | 2.2
O=C1CCC(=O)N1N1C(=O)C2C3c4ccccc4C(c4ccccc43)C2C1=O (stereo unspecified)
  -1 | -6 | 2004 | 1 | 1 | 14 | 1.6
COc1ccc(Nc2ccc(N3C(=O)CCCC3=O)cc2[N+](=O)[O-])cc1OC
  -5 | 18 | 1974 | -3 | -3 | -20 | -3.8
NC(=O)c1ccc(-n2nnnc2Oc2ccccc2C(=O)N2CCOCC2)cc1
  -9 | 4 | 3731 | x | x | -18 | 0.7
CCNC(=O)CN(Cc1ccccc1)S(=O)(=O)c1ccccc1
  12 | 3 | 7389 | 11 | -3 | -25 | 5.9
NC(=O)C1Cc2ccccc2CN1C(=O)c1cc(C2CC2)nn1-c1ccccc1 (stereo unspecified)
  0 | x | 3637 | 15 | 7 | -6 | 26
COc1ccc(CCNCC(=O)Nc2ccc(C)c(Br)c2)cc1OC
  -3 | 6 | 4251 | 2 | 15 | -31 | 1.5
COCC(=O)NN=Cc1ccc(Sc2nc3ccccc3s2)o1
  -3 | x | x | 8 | 9 | x | 1.2
CCOc1ccc(S(=O)(=O)N2CCCC(C(=O)NC3CC3)C2)cc1Cl (stereo unspecified)
  7 | 4 | 4882 | 5 | -1 | -7 | 3.4
CCn1c(CNC(=O)Cc2ccc(OC)cc2)nnc1SCC(=O)Nc1ccc(C(=O)O)cc1
  3 | 0 | 2044 | 13 | 6 | -23 | 0.6
Cc1ccc(CSc2nnc(-c3ccccn3)n2C)cc1
  -4 | 3 | 5575 | 13 | 17 | -59 | 8.0
CN(CC(=O)Nc1ccc(Cl)c(C(F)(F)F)c1)C(=O)c1cc(=O)c2ccccc2o1
  -2 | x | 8059 | 8 | 7 | -23 | 0.2
CN1C(=O)/C(=C/c2ccccc2F)Sc2ccc(C(=O)N3CCCC3)cc21
  2 | -20 | 4537 | 0 | -1 | -18 | 8.6
O=C(CCNC(=O)c1ccccc1Cl)Nc1nccs1
  6 | 4 | 4108 | -5 | 8 | -43 | 2.1
O=C(NCC(=O)N1CCN(Cc2ccc3c(c2)OCO3)CC1)c1ccccc1F
  3 | x | 4169 | 14 | 4 | -7 | 4.0
Cc1cc(C)c(C(=O)COC(=O)C2CCN(c3ccc(C(F)(F)F)cn3)CC2)c(C)c1
  8 | x | 7360 | 7 | 8 | -1 | 0.8
CC1CC(C)CN(C(=O)c2ccc(CSc3nc4ccncc4[nH]3)cc2)C1 (stereo unspecified)
  11 | 10 | 5294 | 8 | 7 | -37 | 3.2
CC(NC(=O)NC(=O)c1ccc(Cl)cc1)c1ccccc1 (stereo unspecified)
  -7 | 0 | 4173 | -6 | -6 | -2 | 3.6
O=C(NC1=NCCS1)C1COc2ccccc2O1 (stereo unspecified)
  1 | 10 | 3995 | -10 | 5 | 72* | 3.4
COc1cc(CN2CCN(C(=O)c3ccc(-c4ccccc4)cc3)CC2)cc(OC)c1OC
  -67 | -11 | 3283 | 2 | 16 | -1 | 24
O=C(CCCCCn1c(SCC(=O)c2ccccc2)nc2ccccc2c1=O)NCc1ccco1
  3 | -2 | 16253* | 7 | 2 | -4 | 4.1
Cc1noc(NS(=O)(=O)c2ccc(NC(=O)c3ccc(OC(C)C)cc3)cc2)c1C
  2 | -15 | 4942 | 18 | 24 | -23 | 3.9
O=C(COC(=O)c1ccccc1NC(=O)c1ccco1)NC1CCS(=O)(=O)C1 (stereo unspecified)
  2 | -8 | 4387 | -1 | 8 | -15 | 0.0
O=C(c1ccccc1)c1ccccn1
  3 | -1 | 3028 | 13 | -2 | 1 | 4.9
COc1ccccc1OCCCCn1c(C(C)O)nc2ccccc21 (stereo unspecified)
  8 | 6 | 2944 | 0 | 1 | -4 | 4.6
Cc1cc(C)c2nncn2n1
  0 | 1 | 3355 | -9 | 8 | 3 | 4.7
CC1CCCCN1CCCn1c(=S)[nH]c2ccccc2c1=O (stereo unspecified)
  0 | 3 | 6300 | x | x | -24 | -1.8
CN(C)S(=O)(=O)Oc1cccc(C(=O)Nc2ccc([N+](=O)[O-])cc2)c1
  4 | 15 | 4453 | -8 | 7 | -81 | 1.0
COc1ccc(NC(=O)C2CC(=O)N(Cc3ccco3)C2)cc1Cl (stereo unspecified)
  3 | x | 5337 | 14 | 9 | x | 5.9
COc1ccc(N2CC(C(=O)Nc3ccc(S(=O)(=O)N4CCCCC4)cc3)CC2=O)cc1 (stereo unspecified)
  8 | -1 | 4798 | 2 | -1 | -8 | 1.4
O=C(NC(=S)NCC1CCCO1)c1ccc(Cl)cc1 (stereo unspecified)
  12 | -5 | 2186 | 0 | 5 | -37 | 3.1
Cc1ccc(C(=O)Nn2cnc3ccccc3c2=O)cc1C
  0 | -2 | 3588 | 3 | 0 | -53 | -2.1
Cc1ccc(C)c(-n2nnnc2SCC(=O)NCC2CCCO2)c1 (stereo unspecified)
  1 | x | 3815 | 2 | 3 | 1 | 1.9
COC(=O)CN(c1cccc(OC)c1)S(C)(=O)=O
  5 | 4 | 8139 | 5 | 12 | -12 | 9.6
O=C(CCc1nnc(-c2ccc3c(c2)OCO3)o1)N1CCC(c2ccc(F)cc2)C1 (stereo unspecified)
  -1 | -3 | 4942 | -4 | 4 | -48 | 6.2
COc1nn(-c2ccccc2)c(=O)c(Cl)c1Cl
  9 | 19 | 3351 | 18 | 8 | -11 | 3.5
O=C1CCc2cc(NS(=O)(=O)c3ccccc3)cc3c2N1CCC3
  13 | 2 | 4674 | 1 | 1 | -16 | 10.0
COc1ccc(-n2c(=O)c3c4c(sc3n3c(=S)[nH]nc23)COC(C(C)C)C4)cc1 (stereo unspecified)
  -3 | -14 | 4362 | 4 | 1 | x | -2.3
COC(=O)c1cc(NC(=O)Cc2coc3cc(OC)ccc23)cc(C(=O)OC)c1
  -13 | 6 | 3964 | -6 | 7 | -3 | 0.4
NC(=O)c1nc(C2CCCCC2)nc2c1[nH]c(=O)n2-c1ccc(F)cc1
  8 | 4 | 4964 | 11 | 9 | -19 | 1.9
O=C(CCNC(=O)c1ccc([N+](=O)[O-])cc1)Oc1ccc(F)c(F)c1
  -2 | x | 3540 | 0 | 15 | -16 | 2.0
Cc1cccc(C)c1NC(=O)COC(=O)c1ccc2c(c1)OCO2
  3 | -4 | 2502 | 3 | 6 | -18 | 1.7
N#CCCN(C(=O)COC(=O)c1ccc2c(c1)OCO2)c1ccccc1
  -2 | x | 8481 | -2 | 2 | -4 | -0.2
CCOC(=O)c1[nH]cnc1C(=O)Nc1cccc(OC)c1
  -7 | 0 | 3782 | -9 | -9 | -8 | 3.2
CCOC(=O)C1=C(N)OC2=C(C(=O)CCC2)C1c1sccc1C (stereo unspecified)
  2 | 2 | 2562 | -8 | 7 | -17 | 3.2
CCCCc1nnc(NC(=O)C(=O)OCC)s1
  6 | -1 | 4198 | -13 | -6 | -31 | 13
COC(=O)C1=C(c2ccccc2)C[C@@H]2CC[C@H]1N2C(=O)N1CCCC1
  x | 7 | 3434 | x | x | -33 | x
Clc1cc2c(c(CSc3nc4ccccc4n4cccc34)c1)OCOC2
  19 | -10 | 4217 | 5 | 2 | -6 | -4.6
O=C(COC(=O)CNC(=O)c1cccc(OC(F)F)c1)NNC(=O)c1ccccc1
  1 | x | 8814 | 6 | 9 | -24 | 1.3
N#CCCN(C(=O)CSc1ncccn1)c1ccc2c(c1)OCCO2
  4 | x | 8102 | 7 | 0 | -20 | 5.4

# Following part.
# Results follow in this order: Sa ugtP lethal | BJeLR viability | Autofluor counter | Mtb hypoxia inh | Mtb hypoxia inh growth | PrP UTR inh | Sa RN4220 lethal
CCOc1ccc(/C=N/NC(=O)c2c(C)n(C)c3ccc(OC)cc23)cc1
  x | -6 | 2254 | x | x | -29 | x
O=C(NC(=S)Nc1ccccc1N1CCCC1)c1ccco1
  x | 7 | 4072 | x | x | -4 | x
COc1cc(OC)cc(C(=O)OCC(=O)Nc2cccc(C(C)=O)c2)c1
  1 | -8 | 3872 | -3 | 1 | 7 | -0.6
C=CCC(=O)N(CC)CC1CCCN(CCc2cccc(F)c2)C1 (stereo unspecified)
  3 | -6 | 3976 | -11 | -1 | -16 | -0.7
CC(COc1ccccc1)=NNC(=O)c1nnn(-c2nonc2N)c1CSc1ccccc1
  1 | x | x | 8 | 5 | x | 3.7
COC(=O)c1ccc(CN2CCN(Cc3ccc(F)cc3)C(CCO)C2)cc1 (stereo unspecified)
  2 | 19 | 4694 | 13 | 5 | -13 | -2.8
COc1ccc(/C=C2\C(=O)N(Cc3ccc(F)cc3)CC(=O)N2Cc2ccccc2)cc1
  -5 | 12 | 2731 | 5 | 3 | -2 | -9.3
Fc1cccc(CCN2CCNCC2Cc2ccccc2)c1 (stereo unspecified)
  3 | x | x | 12 | 1 | x | 4.4
CCC(C)NC(=O)C1CCCN(c2nc(C)cc(OC)n2)C1 (stereo unspecified)
  8 | 1 | 2829 | x | x | -4 | 3.3
Cc1cc(=O)n2c(n1)NC(Nc1cccc(C)c1C)=NC2c1ccccc1 (stereo unspecified)
  -9 | 2 | 6082 | 5 | 3 | -9 | 5.2
Cn1c(=O)c(C(=O)NCC2CCCO2)c(O)c2ccccc21 (stereo unspecified)
  5 | -1 | 3815 | -5 | -2 | -13 | 4.3
O=C(CSc1nnc(CNC(=O)c2ccccc2F)o1)NCc1ccccc1
  3 | -11 | 2725 | -1 | 0 | -26 | -1.6
COc1ccccc1N(CC(O)CN1C(=O)NC(C)(C)C1=O)S(=O)(=O)c1ccc(C)cc1 (stereo unspecified)
  2 | -4 | 2383 | x | x | -3 | -0.6
O=C(NNc1c2ccccc2nc2ccccc12)c1cc2ccccc2cc1O
  37 | 12 | 2278 | x | x | -12 | 25
COC(=O)Nc1ccc(=O)n(Cc2c(Cl)cccc2Cl)c1
  1 | 11 | 23829* | -2 | -10 | -30 | 0.0
Cn1c(N)c(C(=O)COC(=O)CCC(=O)c2ccc(F)cc2)c(=O)n(C)c1=O
  6 | -10 | 4156 | 3 | 5 | -6 | -1.3
Cc1cnc(NC(=O)C2COc3ccccc3O2)s1 (stereo unspecified)
  -7 | -12 | 3278 | 11 | 9 | 33 | 1.3
Cc1c(NC(=O)CC(C)C)c(=O)n(-c2ccccc2)n1C
  x | 1 | 7714 | x | x | -22 | x

# Structural class: the compounds so far containing an aryl thioether with sulfur outside any ring (10)
# Results follow in this order: Sa ugtP lethal | BJeLR viability | Autofluor counter | Mtb hypoxia inh | Mtb hypoxia inh growth | PrP UTR inh | Sa RN4220 lethal
COCC(=O)NN=Cc1ccc(Sc2nc3ccccc3s2)o1
  -3 | x | x | 8 | 9 | x | 1.2
CCn1c(CNC(=O)Cc2ccc(OC)cc2)nnc1SCC(=O)Nc1ccc(C(=O)O)cc1
  3 | 0 | 2044 | 13 | 6 | -23 | 0.6
Cc1ccc(CSc2nnc(-c3ccccn3)n2C)cc1
  -4 | 3 | 5575 | 13 | 17 | -59 | 8.0
CC1CC(C)CN(C(=O)c2ccc(CSc3nc4ccncc4[nH]3)cc2)C1 (stereo unspecified)
  11 | 10 | 5294 | 8 | 7 | -37 | 3.2
O=C(CCCCCn1c(SCC(=O)c2ccccc2)nc2ccccc2c1=O)NCc1ccco1
  3 | -2 | 16253* | 7 | 2 | -4 | 4.1
Cc1ccc(C)c(-n2nnnc2SCC(=O)NCC2CCCO2)c1 (stereo unspecified)
  1 | x | 3815 | 2 | 3 | 1 | 1.9
Clc1cc2c(c(CSc3nc4ccccc4n4cccc34)c1)OCOC2
  19 | -10 | 4217 | 5 | 2 | -6 | -4.6
N#CCCN(C(=O)CSc1ncccn1)c1ccc2c(c1)OCCO2
  4 | x | 8102 | 7 | 0 | -20 | 5.4
CC(COc1ccccc1)=NNC(=O)c1nnn(-c2nonc2N)c1CSc1ccccc1
  1 | x | x | 8 | 5 | x | 3.7
O=C(CSc1nnc(CNC(=O)c2ccccc2F)o1)NCc1ccccc1
  3 | -11 | 2725 | -1 | 0 | -26 | -1.6
